Screening results (PubChem BioAssay)
FPR binder: ligands of human FPR, also counter-screen for FPRL1 ligands | inhibition, %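 (tested at 6.7 µM)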 | P21462 | FPR-expressing cells, fluorescent ligand binding, flow cytometry | 0.74% of 24,000 active;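 note: 0% = buffer wells and 100% = receptor blocker peptide wells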
Target sequence (P21462 whole entry, looked up): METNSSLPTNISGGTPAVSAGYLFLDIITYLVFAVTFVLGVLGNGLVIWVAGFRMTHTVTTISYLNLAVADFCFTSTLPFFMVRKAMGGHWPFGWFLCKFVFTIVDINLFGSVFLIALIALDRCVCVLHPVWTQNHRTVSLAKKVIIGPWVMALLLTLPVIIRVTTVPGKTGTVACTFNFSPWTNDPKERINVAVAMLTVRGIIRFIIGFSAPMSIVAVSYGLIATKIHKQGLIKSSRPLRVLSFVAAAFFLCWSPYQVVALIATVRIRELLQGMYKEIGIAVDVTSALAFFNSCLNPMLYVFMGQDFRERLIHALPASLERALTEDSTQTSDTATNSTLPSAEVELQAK
VCAM-1 imaging: inhibitors of TNFa-induced VCAM-1 surface display, imaging, high-content imaging, pooled HUVEC, TNFa stimulus (AID 456) | 0.2% of 10,000 active | HUVEC TNFa-induced VCAM-1 surface expression, immunofluorescence imaging; numbers were filed only for top-ranked candidate wells | inhibition, % at 5 µM; hits with a dose series show IC50 in µM;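 active = top tenth filtered wells with inhibition above zero that passed visual or statistical confirmation; inactive = the rest, including hits rejected on review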;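 note: 0% = stimulated vehicle wells and 100% = unstimulated cells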
VCAM-1 down: inhibitors of TNFa-induced VCAM-1 surface display, cell-based, plate reader, pooled HUVEC, TNFa stimulus (AID 454) | HUVEC TNFa-induced VCAM-1 surface immunofluorescence, plate reader; numbers were filed only for top-ranked candidate wells | 0.2% of 10,000 active | inhibition, % at 5 µM;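 active = compound among top-ranked inhibitors of TNF-induced VCAM-1 adhesion protein staining, with the hit upheld by image or statistical review; inactive = the rest, including hits rejected on review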;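 note: 0% = TNFa with vehicle and 100% = cells without TNFa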
FPRL1 ligand: ligands of human FPRL1, also counter-screen for FPR ligands | AID 441 | FPRL1-expressing cells, fluorescent ligand binding inhibition, flow cytometry | 0.3% of 24,000 active | inhibition, %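 (tested at 6.7 µM)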 | P25090;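 note: 0% = buffer alone and 100% = receptor blocker peptide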
Target sequence (P25090 whole entry, looked up): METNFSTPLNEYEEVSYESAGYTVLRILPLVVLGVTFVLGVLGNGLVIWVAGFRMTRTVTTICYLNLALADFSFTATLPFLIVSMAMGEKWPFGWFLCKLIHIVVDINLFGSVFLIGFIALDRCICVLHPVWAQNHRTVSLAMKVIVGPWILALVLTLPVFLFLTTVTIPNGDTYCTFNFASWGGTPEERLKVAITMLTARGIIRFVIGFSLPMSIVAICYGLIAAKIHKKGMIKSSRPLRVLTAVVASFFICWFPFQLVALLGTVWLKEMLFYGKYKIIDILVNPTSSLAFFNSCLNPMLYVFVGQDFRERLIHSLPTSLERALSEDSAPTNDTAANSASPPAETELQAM
VCAM-1 augmentation: enhancers of VCAM-1 display on endothelial cells, imaging, high-content imaging, pooled HUVEC, TNFa stimulus (AID 457); Pooled HUVEC, TNFa-induced VCAM-1 immunofluorescence imaging; hits of this screen are not shown here; calls only; 0.2% of 10,000 active;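 active = a top-ranked rise in VCAM-1 staining upheld on image or statistical review; inactive = the rest, including candidates rejected on review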;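 note: compounds tested at 5 µM in the well; cells exposed to compound for 24 hours before fixing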
Active calls of the source: *; i = inactive; . = no result given.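 Rule for the calls, unless noted: active = mean above 30%; inconclusive = self-fluorescent; inactive = the rest.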

SMILES	FPR binder	VCAM-1 imaging	VCAM-1 down	FPRL1 ligand	VCAM-1 augmentation
Cc1cc(C)nc(-n2nc(C)cc2NC(=O)c2ccc(Br)o2)n1	-6	i	i	-18	i
COc1ccc(CCN2C(=O)C(O)=C(C(=O)c3ccco3)C2c2cccs2)cc1OC (stereo not drawn)	82*	.	.	31*	.
CC(C)Cn1cc(C(=O)NCC2CCCO2)c2c3ccccc3n(C)c2c1=O (stereo not drawn)	6	i	i	-2	i
CCOc1ccccc1Oc1c(C)oc2c(CN3CCN(CCO)CC3)c(O)ccc2c1=O	-6	.	.	-1	.
O=C(NCc1ccccn1)c1ccc(/C=N/O)nc1	4	.	.	4	.
CCc1ccc(NC(=O)CN(c2ccc3c(c2)OCO3)S(=O)(=O)c2c(C)noc2C)cc1	3	.	.	0	.
Cc1cc2c(=O)n(CC(=O)NCC(=O)N3CCN(Cc4ccccc4)CC3)cnc2s1	10	.	.	-2	.
CCn1c(C(=O)OC)cc2c1ccn2-c1ccc(F)cc1	12	i	i	-2	i
Cc1ccsc1C(=O)Nc1ccc(C(=O)O)cc1	-7	.	.	-3	.
CCOc1ccc(-n2nc(C(=O)N3CCOCC3)c3ccccc3c2=O)cc1	-4	.	.	-4	.
O=C(CSc1nnc(CNC(=O)c2cccs2)o1)NC1CCCCC1	2	.	.	3	.
CCOC(=O)c1cc2c(=O)n3ccccc3nc2n(CCCOC)c1=NC(=O)c1cccnc1	-2	.	.	-1	.
O=C(Nc1ccc(OC(=O)c2ccncc2)cc1)c1ccncc1	2	.	.	-3	.
CCN(CC)c1ccc(NC(=O)c2ccc(NC(=O)C3CCCO3)cc2)c(C)c1 (stereo not drawn)	-4	.	.	0	.
CCOC(=O)c1ccc(CNC(=O)C(Cc2c[nH]c3ccccc23)NC(C)=O)o1 (stereo not drawn)	14	i	i	1	i
O=C(Nc1ccccc1N1CCOCC1)c1ccc2ccccc2n1	-1	i	i	-6	i
Fc1ccc(-c2nnc3ccc(N4CCc5ccccc5C4)nn23)cc1	7	.	.	-8	.
CC(=O)Cc1nsc(NC(=O)C2Cc3ccccc3C(=O)O2)n1 (stereo not drawn)	-2	.	.	0	.
Cc1ccc(-n2c(Cc3cccn3C)nnc2SCC(=O)NC2CCCCC2)cc1	-2	.	.	-2	.
O=C(O)C1C2C=CC(C2)C1C(=O)NCc1ccoc1 (stereo not drawn)	1	.	.	0	.
O=C(C1CC(=O)N(C2CCCC2)C1)N1CCC(Cc2ccccc2)CC1 (stereo not drawn)	-2	.	.	-3	.
COc1ccc(Cn2nnc3c(=O)[nH]c(C(=O)NCCc4ccc(F)cc4)nc32)cc1OC	9	.	.	3	.
CC(=O)N(C(C)=O)c1c(C#N)c(C)n(-c2ccccc2)c1C(=O)c1ccccc1	-11	i	i	-1	i
Cc1c(NC(=O)c2coc(=O)c(Br)c2)c(=O)n(-c2ccccc2)n1C	7	i	i	4	i
O=C(O)c1cc(=O)c2c(OCC(O)COc3cccc4oc(C(=O)O)cc(=O)c34)cccc2o1	0	i	i	-2	i
Cc1ccc(CS(=O)(=O)CCC(=O)NCCCOC(C)C)cc1	2	.	.	-1	.
O=S1(=O)CC(N2CCCCC2)C(N2CCCCC2)C1 (stereo not drawn)	2	i	i	-5	i
CCN(CC)CCNC(=O)c1ccc2c(=O)n(CCc3ccccc3)c(=O)[nH]c2c1	10	.	.	-1	.
CN1CCN(C(=O)c2ccccc2N(Cc2ccccc2)S(C)(=O)=O)CC1	2	i	i	4	i
Clc1ccc2nc(N3CCN(c4ccccc4)CC3)sc2c1	-4	.	.	0	.
COc1ccccc1C1/C(=C(/O)c2ccccc2)C(=O)C(=O)N1CCO (stereo not drawn)	51*	.	.	-2	.
COCCn1c(SCC(=O)Nc2ccc3c(c2)OCCO3)nc2c(c1=O)SC(C)C2 (stereo not drawn)	-6	i	i	1	i
Cc1c(C(=O)N2CCN(c3ccccn3)CC2)sc2ncnc(N3CCN(c4ccccc4)CC3)c12	-5	.	.	-4	.
COc1ccc(C2CCCN2C(=O)Nc2cccc(C(C)=O)c2)cc1OC (stereo not drawn)	-2	.	.	9	.
CC1CCN(S(=O)(=O)c2ccc(F)c(C(=O)O)c2)CC1	-6	.	.	0	.
CCOCCCNC(=O)C1CCC(CNS(=O)(=O)c2cccc3nsnc23)CC1 (stereo not drawn)	-8	i	i	0	i
CC/C(O)=C(/C#N)c1nnc2n1CCCCC2	-3	i	i	0	i
COc1ccc(NC(=O)c2cc3c(=O)n(C)c4ccccc4c3n2C)cc1OC	-1	.	.	3	.
COc1ccccc1N1CCN(C(=O)c2cc(-c3ccc(Cl)cc3)on2)CC1	0	.	.	2	.
CCCN1C2=NCCN2c2cc(C)c(C)cc21	-5	.	.	-4	.
CCCc1cc(=O)n2[nH]c(-c3ccc(Br)cc3)cc2n1	2	i	i	5	i
Cc1noc(/C=C/N(C)C)c1S(=O)(=O)N1CCN(c2ccccc2)CC1	10	.	.	7	.
CCC(=O)N1CCc2cc(S(=O)(=O)NCCC(=O)N3CCN(Cc4ccccc4)CC3)ccc21	7	.	.	2	.
CCOCC(=O)Nc1cc(-c2cn3cccnc3n2)ccc1C	-9	.	.	-4	.
Cc1cc2c(c(=O)n1CCc1ccccc1)C(C(C)C)C(C#N)=C(N)O2 (stereo not drawn)	5	i	i	2	i

Structures from the list above that contain two or more sulfur atoms (3):
SMILES	FPR binder	VCAM-1 imaging	VCAM-1 down	FPRL1 ligand	VCAM-1 augmentation
O=C(CSc1nnc(CNC(=O)c2cccs2)o1)NC1CCCCC1	2	.	.	3	.
COCCn1c(SCC(=O)Nc2ccc3c(c2)OCCO3)nc2c(c1=O)SC(C)C2 (stereo not drawn)	-6	i	i	1	i
CCOCCCNC(=O)C1CCC(CNS(=O)(=O)c2cccc3nsnc23)CC1 (stereo not drawn)	-8	i	i	0	i

Following part:
SMILES	FPR binder	VCAM-1 imaging	VCAM-1 down	FPRL1 ligand	VCAM-1 augmentation
Cc1cccc(NC(=O)CN(C)S(=O)(=O)c2cccc3cccnc23)c1	0	.	.	0	.
O=c1cc(CSc2nnc(COc3ccc(Cl)cc3)o2)c2ccccc2[nH]1	-5	i	i	3	i
Cc1ccc(-n2c(O)cnc2Nc2nc(C)cc(C)n2)cc1	-5	.	.	-4	.
COc1cc(C(=O)NCc2nnc(SCC(=O)N3CCC(C)CC3)o2)cc(OC)c1OC	2	.	.	4	.
CCOc1ccc(-c2nnc3ccc(SCC(=O)NCc4ccco4)nn23)cc1	3	.	.	-4	.
CC(=O)Nn1c(C)nnc1-n1nc(C)cc1C	1	i	i	1	i
CC1CCC(NC(=O)CN2CCCN(Cc3ccc(F)cc3Cl)C2=O)CC1 (stereo not drawn)	1	.	.	-7	.
CCOC(=O)C1CCN(C(C(=O)NC2CCCCC2)c2ccc(OC)cc2)CC1 (stereo not drawn)	-4	.	.	1	.
CSc1nnc2c(n1)OC(c1ccc(C(=O)O)cc1)N(C(C)=O)c1ccccc1-2 (stereo not drawn)	6	.	.	0	.
COC(=O)CSc1nnc(-c2ccncc2)o1	-5	i	i	-4	i
Cc1cccc(-n2c(=O)[nH]c3c(C(N)=O)nc(C(C)C)nc32)c1	-1	.	.	-2	.
O=C1CN(CC(=O)N2CCCCC2)c2ccccc2O1	7	.	.	4	.
O=C(O)CCC(=O)N1CCc2cc(S(=O)(=O)N3CCC(Cc4ccccc4)CC3)ccc21	-1	.	.	3	.
Cc1ccc(NC(=O)CSc2nnc(CCCCCNC(=O)OC(C)(C)C)o2)c(C)c1	-7	i	i	-6	i
O=C(NC1CC1)c1ccc(S(=O)(=O)NCC2CCCCC2)cc1	-8	i	i	2	i
CCCCN(CCCNC(=O)CN1C(=O)COc2ccccc21)c1ccccc1	0	.	.	6	.
CCn1c(C(=O)NCc2cccnc2)cc2sc(Cl)cc21	-6	.	.	0	.
COc1ccc2nc(SCC(=O)Nc3ccc4c(c3)OCCO4)[nH]c2c1	14	.	.	-3	.
COC(=O)c1sccc1NC(=O)c1ccncc1	3	i	i	-2	i
Cc1ccc(-c2cc(C(=O)N3CCCC3)no2)cc1	-2	i	i	-3	i
COC(=O)CCN1CCC(C(N)=O)CC1	-3	i	i	-4	i
O=C1NC(=O)C2(CCC(C(=O)O)C2)N1 (stereo not drawn)	1	i	i	3	i
Cc1cccc(CSC2=NCCN2C(=O)C2CC2)c1	-5	.	.	-3	.
O=C(O)CCNC(=O)c1ccccc1	6	i	i	7	i
COc1ccc(OC)c(CNC(=O)C2CCN(S(=O)(=O)N3CCCC3)CC2)c1	2	.	.	-2	.
CCC(C(=O)NCCN1CCN(C)CC1)n1c(C)c2cnn(-c3ccccc3)c(=O)c2c1C (stereo not drawn)	-1	.	.	0	.
CCOC(=O)c1[nH]c(CSc2nnc(-c3ccc(OC)cc3)o2)c(C(=O)OCC)c1C	-9	i	i	-30	i
O=c1c2cc(N3CCOCC3)ccc2[nH]c(=S)n1CCCN1CCCC1	-1	i	i	3	i
COc1ccc(-n2c(Cc3cccn3C)nnc2SCC(=O)Nc2cccc(C)c2C)cc1	4	i	i	5	i
COc1ccc(-c2cc(C(=O)Nc3c(C)nn(Cc4ccccc4Cl)c3C)no2)cc1	10	.	.	-3	.
CCN1CCN(C(=O)c2cc3c(=O)n(C)c4ccccc4c3n2C)CC1	-5	i	i	-3	i
CCn1c2ccccc2c2nnc(SCc3ccccc3)nc21	1	.	.	0	.
O=C(CCSc1nnc(-c2ccncc2)o1)Nc1ccccc1	-10	i	i	-2	i
Cc1ccc(S(=O)(=O)c2c(C)nn(C(C)(C)C)c2OC(=O)c2ccco2)cc1	0	.	.	-2	.
COc1ccc2ccccc2c1CN1CCCC(CO)C1 (stereo not drawn)	3	i	i	-2	i
COc1ccc(-c2nsc(SCC(=O)Nc3cc(C)on3)n2)cc1	6	i	i	4	i
CCOC(=O)C1CCN(CC(=O)Nc2c(C(=O)OC)[nH]c3ccc(Cl)cc23)CC1	16	i	i	1	i
CC(=O)N1C(C(=O)O)CSC1c1ccc(C)cc1 (stereo not drawn)	3	.	.	-2	.
Cc1c(C(=O)N2CCN(C)CC2)oc2ccc(S(=O)(=O)N3CCOCC3)cc12	0	.	.	-1	.
O=C(NCCCN1CCCC1=O)c1cccc(N2CCCC2=O)c1	6	.	.	19	.
COc1cccc(N2CCN(CC(=O)Nc3nnc(-c4ccccc4)s3)CC2)c1	3	i	i	-5	i
CCOc1ccc(OCC)c(NC(=O)C2CCCN2S(=O)(=O)c2cccc3cccnc23)c1 (stereo not drawn)	10	.	.	15	.
CC(NC(=O)c1cn(C)c2ccc(S(=O)(=O)N3CCCC3)cc2c1=O)c1ccc2c(c1)OCCO2 (stereo not drawn)	7	i	i	8	i
COc1cc(NC(=O)c2ccc(COCC(F)(F)F)o2)cc(OC)c1OC	-7	i	i	2	i
Cc1ccccc1S(=O)(=O)Cc1ccc(C(=O)NCCCOC(C)C)o1	-2	.	.	0	.
C=CCN(CC=C)C(=O)Nc1cc(Cl)ccc1OC	-2	i	i	0	i
COc1cc2c(cc1NC(=O)COC(=O)Cn1cnc3ccccc31)oc1ccccc12	12	i	i	2	i
O=C(NC1CCCCC1)C(c1ccco1)N(Cc1cccnc1)C(=O)C1COc2ccccc2O1 (stereo not drawn)	4	i	i	3	i
COc1ccc(-c2nnc(SCC(=O)Nc3ccc(Cl)cc3)n2C)cc1	-8	i	i	-1	i
COC(=O)c1c(NC(=O)c2ccc(S(=O)(=O)N3CCOCC3)cc2)sc2c1CCN(C)C2	-4	i	i	0	i
COC(=O)c1ccccc1N1C(=O)C2C(C1=O)C1C=CC2C12CC2 (stereo not drawn)	-2	.	.	-5	.

A different layout for part of the listing above.
COc1ccc(-c2nnc(SCC(=O)Nc3ccc(Cl)cc3)n2C)cc1
  FPR binder: -8
  VCAM-1 imaging: i
  VCAM-1 down: i
  FPRL1 ligand: -1
  VCAM-1 augmentation: i

COC(=O)c1c(NC(=O)c2ccc(S(=O)(=O)N3CCOCC3)cc2)sc2c1CCN(C)C2
  FPR binder: -4
  VCAM-1 imaging: i
  VCAM-1 down: i
  FPRL1 ligand: 0
  VCAM-1 augmentation: i

Profiles, quoted from the list:
Entry for COC(=O)c1ccccc1N1C(=O)C2C(C1=O)C1C=CC2C12CC2 (stereo not drawn) = FPR binder = -2; VCAM-1 imaging = .; VCAM-1 down = .; FPRL1 ligand = -5; VCAM-1 augmentation = .
Entry for O=C(NC1CCCCC1)C(c1ccco1)N(Cc1cccnc1)C(=O)C1COc2ccccc2O1 (stereo not drawn) = FPR binder = 4; VCAM-1 imaging = i; VCAM-1 down = i; FPRL1 ligand = 3; VCAM-1 augmentation = i
Entry for COC(=O)c1c(NC(=O)c2ccc(S(=O)(=O)N3CCOCC3)cc2)sc2c1CCN(C)C2 = FPR binder = -4; VCAM-1 imaging = i; VCAM-1 down = i; FPRL1 ligand = 0; VCAM-1 augmentation = i

An excerpt; the hit share may differ from the screen's.
